# High-throughput results: PubChem, National Center for Advancing Translational Sciences (NCATS)
# Rango-impB inh – Rango-importin beta binding inhibition. Q14974. Rango CFP/YFP FRET sensor + importin beta, 45 min. Potency, µM (top dose mostly 92.2 µM), for inactives: top-dose inhibition of complex formation. hit rate 0.031% among 340,000. AID 540263; active = rising FRET ratio curve, often small or poorly fitted; inconclusive = mostly compound fluorescence or quenching in the first reads; inactive = flat curves in all reads;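 note: potency is the fitted concentration of half-maximal effect; 0% = DMSO wells and 100% = buffer wells lacking importin beta; nearly all actives have a fitted effect of over 15% in size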
#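 FRET biosensor Rango (snurportin 1 IBB between N-terminal EYFP and C-terminal Cerulean), 50 nM in PBS/1 mM DTT/0.02% Tween-20/0.1% BSA, preincubated 5 min RT with compound; 0.125 microM importin beta added, 45 min RT, CFP/YFP FRET ratio read.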
# miR-21 reporter – miR-21 reporter, rising signal; HeLa miR-21 FLuc reporter, luciferase, 48 h; Potency, µM (top dose mostly 38.3 µM), inactives show at the highest dose reporter change, positive = more light; 340,000 tested, under 10 active; AID 2288; active = well fitted rising curve with a large enough effect; inconclusive = small, poorly fitted or top-dose-only effect; inactive = no such curve, though single readings can be large or run the other way;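 note: % of control where 0% means no effect; miR-21 action dims this reporter so a rising signal means less miR-21 action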
#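 Compounds were titrated across several concentrations (up to approximately 40 uM) and incubated 48 hours with HeLa miR-21-FLuc reporter cells (miR-21 target sequence downstream of FLuc, endogenous miR-21). Readout was firefly luciferase luminescence after lytic detection reagent.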
# GLA inh pH 4.5 – alpha-galactosidase A (human) inhibition, pH 4.5. purified enzyme, 4-MU-alpha-Gal fluorescence, pH 4.5. 230,000 tested, under 10 active. P06280. AID 1467. activity change, negative = inhibition, % at 105 µM; inconclusive = small, poorly fitted or top-dose-only inhibition, or a rising curve; inactive = flat fitted curve, though single readings scatter; no compound was filed as active;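 note: 0% = full activity with enzyme and -100% = basal without enzyme; dose as in the result columns while the protocol names 77 µM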
# Target sequence (P06280 whole entry, looked up): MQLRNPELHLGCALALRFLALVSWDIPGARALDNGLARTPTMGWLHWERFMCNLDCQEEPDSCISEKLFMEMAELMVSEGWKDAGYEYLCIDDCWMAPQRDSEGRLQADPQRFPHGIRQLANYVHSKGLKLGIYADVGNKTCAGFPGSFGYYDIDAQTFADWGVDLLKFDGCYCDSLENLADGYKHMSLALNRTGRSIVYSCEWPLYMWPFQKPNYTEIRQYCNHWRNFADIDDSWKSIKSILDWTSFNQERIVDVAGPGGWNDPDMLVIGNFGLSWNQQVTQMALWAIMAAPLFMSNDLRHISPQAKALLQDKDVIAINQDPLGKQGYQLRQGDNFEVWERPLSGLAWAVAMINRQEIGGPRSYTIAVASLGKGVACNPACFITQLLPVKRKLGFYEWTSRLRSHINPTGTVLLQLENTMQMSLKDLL
# Rango release inh – prevents RanGTP from dissociating the Rango-importin beta complex | hit rate 0.071% among 340,000 | Biochemical FRET Rango-importin beta, RanGTP-induced dissociation | Potency, µM (series often up to 46.1 µM), inactives show at the top dose activity change, negative = inhibition | O95149+P62826; active means falling FRET ratio curve, often poorly fitted, with flat reads before Ran was added; inconclusive means other falling curves, or compound fluorescence or quenching; inactive means flat or rising ratio curve;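 note: potency is the fitted concentration of half-maximal effect; % of control where 0% means no effect; nearly all actives have a fitted effect of over 45% in size; -100% = wells without RanGTP and RCC1; the record marks most hits as doubtful in a second field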
#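 Compounds preincubate 5 min with complex of recombinant Rango and importin beta in PBS with 1 mM DTT. Ran (0.6 uM) loaded with 2 mM GTP plus 0.2 uM RCC1 starts dissociation; FRET is recorded 45 min later.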
# Active calls of the source: *; ? = inconclusive; . = no result given; & = joins results of further samples. Not all compounds are listed. The share of hits here may be higher or lower than overall.
no.	SMILES	miR-21 reporter	Rango-impB inh
1	C/C(CCc1oc2ccc(Br)cc2c1-c1ccc(C)o1)=N/O	-13.9%	?
2	COc1ccc(CNC(=O)C2CC(=O)N(c3ccc(OCC(=O)N4C(C)CCCC4C)cc3)C2)cc1 (stereo unspecified)	-3.1%	-0.6%
3	CCn1nc(C(=O)OCC(=O)N(CC(C)C)c2c(N)n(Cc3ccccc3)c(=O)[nH]c2=O)c2ccccc2c1=O	.	0.1%
4	COc1ccc(NC(=O)CSc2nc3ccsc3c(=O)n2CCC(=O)O)c(OC)c1	-0.6%	-0.9%
5	CCOc1ccc(-n2cc(C(=O)N3CCCCCC3)c3cc(OC)c(OC)cc3c2=O)cc1	-1.6%	-0.5%
6	COc1cccc(C2C(C#N)=C(N)OC3=C2C(=O)CC(c2ccco2)C3)c1OCc1ccc(F)cc1 (stereo unspecified)	3.6%	?
7	O=C(O)CCn1nnc(-c2ccccc2)n1	-1.3%	3.5%
8	NCCCC[C@H](N)c1nnc([C@H](CCC(=O)O)NC(=O)C2CCNCC2)o1	0.3%	-0.3%
9	O=C(c1cc2ccccc2cc1O)N1CCN(c2ccc([N+](=O)[O-])cc2)CC1	.	-0.2%
10	Nc1ccc(S(=O)(=O)Nc2nc(-c3ccccc3)cc(-c3ccccc3)n2)cc1	-5.2%	0.1%
11	Oc1cccc(/C=N/N2CCN(C3c4ccccc4-c4ccccc43)CC2)c1	7.2%	0.1%
12	CCOc1ccc(S(=O)(=O)N(CC)CC(=O)N2CCCC2)cc1C	-3.8%	-0.9%

no.	Rango release inh	GLA inh pH 4.5
1	-0.5%	-12.7
2	0.1%	3.4
3	5.4%	.
4	6.5%	.
5	16.7%	1.4
6	2.3%	-10.7
7	0.8%	-17.8
8	-14.3%	6.1
9	-11.9%	.
10	11.0%	-0.7
11	4.9%	-6.4
12	1.9%	.

# Remaining list, next part
no.	SMILES	miR-21 reporter	Rango-impB inh
13	Cc1nnc(N=c2ssnc2Cl)o1	.	0.3%
14	CCC(CO)Nc1ncc([N+](=O)[O-])cc1C#N (stereo unspecified)	-1.6%	-2.1%
15	COc1ccc(-n2c(CCc3ccccc3)n[nH]c2=S)cc1	-4.0%	1.5%
16	CCOCCCNC(=O)c1cccc(OC2CCN(S(C)(=O)=O)CC2)c1	-62.8%	-1.1%
17	COc1ccc(-c2nc(CS(=O)CC(=O)N3CCc4ccccc4C3)c(C)o2)cc1 (stereo unspecified)	-4.4%	?
18	COc1ccc(C)cc1NC(=O)CN(c1ccccc1)S(C)(=O)=O	-4.8%	0.1%
19	O=C(CCNS(=O)(=O)c1ccc(Br)s1)NC1CCCC1	-7.1%	1.1%
20	CC(=O)NC(c1ccco1)c1cc(Cl)c2ccc(Cl)nc2c1O (stereo unspecified)	.	?
21	Cc1ccc(CN2CCN(C(=O)C3CCCO3)CC2)cc1 (stereo unspecified)	-6.0%	-1.7%
22	CCOC(=O)[C@@H]1[C@H]2COc3ccc(Br)cc3[C@@H]2N2C(=O)N(c3ccc(C(F)(F)F)cc3)C(=O)[C@]12C	-0.8%	-1.6%
23	OCCN(CCO)c1ccc(C(c2ccc(Cl)cc2)c2ccc(N(CCO)CCO)cc2Cl)c(Cl)c1	3.4%	-0.7%
24	CC1=C(C)CC(C(=O)NCc2ccc3c(c2)OCO3)C(C(=O)O)C1 (stereo unspecified)	-1.9%	8.8%

no.	Rango release inh	GLA inh pH 4.5
13	5.9%	.
14	0.3%	-0.6
15	-12.8%	2.8
16	12.2%	.
17	-14.9%	-0.6
18	-0.4%	-1.3
19	0.2%	5.0
20	-2.5%	.
21	-4.9%	2.1
22	-14.1%	.
23	-7.9%	2.8
24	0.7%	-1.3

# (more compounds)
no.	SMILES	miR-21 reporter	Rango-impB inh
25	O=C(CN1C(=O)S/C(=C\c2ccccc2F)C1=O)Nc1ccccc1O	-0.8%	-0.1%
26	CN(C)/C=N/c1nc2nccc(-c3cccnc3)n2n1	0.7%	0.6%
27	CC(=O)C1=C(N2CCCCC2)CCC1=O	-8.3%	0.1%
28	COc1ccc(NC2CCCN(C(=O)CN3CCOC3=O)C2)cc1OC (stereo unspecified)	-4.7%	-1.4%
29	Cc1cccc(NC(=O)CCS(=O)(=O)c2ccc3c(c2)NC(=O)CS3)n1	2.7%	-0.9%
30	COc1cccc(-n2nnc3c(=O)n(CC(=O)NCC4CCCO4)cnc32)c1 (stereo unspecified)	2.4%	0.2%
31	COc1ccccc1C(=O)C1CCCN(Cc2ccc(Oc3ncccn3)cc2)C1 (stereo unspecified)	-2.8%	-5.0%
32	Cc1cccc(CNc2ncnc3ccc(-c4ccoc4)cc23)c1	.	0.2%
33	CCOC(=O)C(Sc1nnc(-c2ccncc2)o1)C(C)=O (stereo unspecified)	-0.5%	-1.1%
34	CC(=O)Nc1ccc(S(=O)(=O)NCCCN2CCN(Cc3ccccc3)CC2)cc1Cl	2.5%	?
35	CCCN1CCN(CCCNC(=O)c2cc3c(=O)[nH]c4ccc(C)cc4c3s2)CC1	-7.1%	2.5%
36	COc1cccc(NC(=O)N2CCCC2C(=O)NC23CC4CC(CC(C4)C2)C3)c1 (stereo unspecified)	0.0%	-2.6%

no.	Rango release inh	GLA inh pH 4.5
25	-6.0%	.
26	9.6%	7.7
27	6.6%	2.6
28	11.5%	.
29	5.5%	.
30	15.2%	6.5
31	1.4%	-3.1
32	7.8%	1.6
33	0.8%	-0.1
34	12.8%	2.8
35	8.6%	5.2
36	4.1%	.

# Other entries:
no.	SMILES	miR-21 reporter	Rango-impB inh
37	O=C(Nc1ccc(F)cc1)c1nc[nH]c1C(=O)Nc1ccc([N+](=O)[O-])cc1	1.2%	2.0%
38	O=C(c1ccc(S(=O)(=O)N2CCCCCC2)cc1)N1CCN(c2ccccc2F)CC1	.	-0.7%
39	O=C(Nc1ccc(Cl)cc1)C1C2CCCCC21 (stereo unspecified)	-37.4%	-2.0%
40	CC(Oc1ccccc1)C(=O)Nc1nnc(C2CCCCC2)s1 (stereo unspecified)	-50.1%	-0.3%
41	O=S(=O)(c1ccc(-c2ccon2)s1)N1CCCC1	-6.1%	1.2%
42	Nc1nc(N)c2nc(-c3ccccc3)c(N)nc2n1	-13.6%	?
43	O=C(CCCc1ccccc1)Nc1nncs1	-15.3%	-0.1%
44	O=c1[nH]cnc2c1ncn2Cc1ccc([N+](=O)[O-])cc1	-3.3%	-2.5%
45	Cc1ccc(C)c(SCC(=O)N(C)C2CCS(=O)(=O)C2)c1 (stereo unspecified)	.	0.7%
46	O=c1oc2ccccc2c(Nc2cccc(O)c2)c1[N+](=O)[O-]	-2.0%	5.4%
47	CCOC(=O)[C@@H]1[C@H]2COc3ccccc3[C@H]2N2C(=O)N(c3cccc(C)c3)C(=O)[C@]12C	.	1.8%
48	COC(=O)C1CCCN1C(=O)c1cccs1 (stereo unspecified)	-3.9%	1.2%

no.	Rango release inh	GLA inh pH 4.5
37	6.2%	-1.8
38	-1.5%	.
39	5.5%	.
40	-9.5%	-1.0
41	-6.7%	-1.7
42	?	?
43	-0.1%	1.3
44	-3.5%	2.3
45	1.1%	.
46	-11.7%	-0.3
47	1.1%	.
48	-2.4%	-5.8

# 7 entries drawn at random from the list so far:
no.	SMILES	miR-21 reporter	Rango-impB inh
39	O=C(Nc1ccc(Cl)cc1)C1C2CCCCC21 (stereo unspecified)	-37.4%	-2.0%
41	O=S(=O)(c1ccc(-c2ccon2)s1)N1CCCC1	-6.1%	1.2%
40	CC(Oc1ccccc1)C(=O)Nc1nnc(C2CCCCC2)s1 (stereo unspecified)	-50.1%	-0.3%
44	O=c1[nH]cnc2c1ncn2Cc1ccc([N+](=O)[O-])cc1	-3.3%	-2.5%
45	Cc1ccc(C)c(SCC(=O)N(C)C2CCS(=O)(=O)C2)c1 (stereo unspecified)	.	0.7%
38	O=C(c1ccc(S(=O)(=O)N2CCCCCC2)cc1)N1CCN(c2ccccc2F)CC1	.	-0.7%
42	Nc1nc(N)c2nc(-c3ccccc3)c(N)nc2n1	-13.6%	?

no.	Rango release inh	GLA inh pH 4.5
39	5.5%	.
41	-6.7%	-1.7
40	-9.5%	-1.0
44	-3.5%	2.3
45	1.1%	.
38	-1.5%	.
42	?	?

# Later entries
no.	SMILES	miR-21 reporter	Rango-impB inh
49	CCOc1ccc(NC(=O)CN(C)C(=O)c2ccccc2SCc2c(C)noc2C)cc1OCC	.	-1.8%
50	Cc1cccc(-n2ncc3c(NNC(=O)c4ccco4)ncnc32)c1	-12.9%	4.4%
51	CC(/C=N/Nc1nncc(=O)[nH]1)=C\c1ccccc1	-19.8%	-3.1%
52	COc1ccc(-c2cc(C(=O)NN3CCOCC3)c3ccccc3n2)cc1OC	-7.5%	-0.8%
53	CC1(C)CC(=O)C(N=Nc2ccc(S(=O)(=O)N3CCCCCC3)cc2)=C(O)C1	-0.2%	0.0%
54	O=C(Nc1cccnc1)c1cc2nc(C3CC3)cc(C(F)(F)F)n2n1	-23.6%	-0.1%
55	O=C(NCc1ccc(F)cc1)c1cccnc1C(=O)O	-1.5%	0.1%
56	CCC(C)N(C(=O)Cn1nnc(-c2ccc(F)cc2)n1)C1CCS(=O)(=O)C1 (stereo unspecified)	-2.6%	-3.3%
57	O=c1cc(-c2ccccc2)oc2cc(O)c(O)c(O)c12	.	-2.0%
58	Cc1nnc(NC(=O)C(C)Sc2nnc(-c3ccco3)n2C(C)C)s1 (stereo unspecified)	12.2%	-1.7%
59	Cn1c(C(=O)NCc2cccs2)cc2oc3ccccc3c21	-7.2%	3.0%
60	COc1ccc(N2CCN(C(CNC(=O)C(=O)NCc3cccnc3)c3ccco3)CC2)cc1 (stereo unspecified)	10.4%	-4.7%

no.	Rango release inh	GLA inh pH 4.5
49	-3.2%	.
50	-0.1%	.
51	0.0%	-14.2
52	7.7%	.
53	-14.9%	3.9
54	-7.9%	-1.1
55	1.4%	.
56	-9.3%	.
57	-7.4%	-14.0&-6.0&-14.1
58	-7.2%	.
59	0.4%	-0.8
60	11.1%	11.9

# The last two compounds of the section above are carried over, then new ones follow:
no.	SMILES	miR-21 reporter	Rango-impB inh
59	Cn1c(C(=O)NCc2cccs2)cc2oc3ccccc3c21	-7.2%	3.0%
60	COc1ccc(N2CCN(C(CNC(=O)C(=O)NCc3cccnc3)c3ccco3)CC2)cc1 (stereo unspecified)	10.4%	-4.7%
61	C=CCn1c(SCC(=O)N(CC)CC)nc(O)cc1=O	-4.3%	1.4%
62	NC(=O)C[N+]1(CC#CC(O)(c2ccccc2)c2ccccc2)CCCC1	-0.5%	0.3%
63	Cc1cc(C)cc(NC(=O)CSc2nnc(CNC(=O)c3cccs3)o2)c1	2.8%	3.3%
64	COc1ccc(OC)c(S(=O)(=O)NCc2cn3ccsc3n2)c1	-1.5%	1.6%
65	O=C(Nc1nccs1)C1CCN(S(=O)(=O)c2c(Cl)cccc2Cl)CC1	14.1%	3.7%
66	O=C(/C=C/c1cccc(F)c1)Nc1nccs1	-42.5%	6.3%
67	COc1ccc(CN(C2CCCC2)S(=O)(=O)c2ccc(-n3cnnn3)cc2)cc1	-15.0%	5.0%
68	Cc1ccc(C)c2sc(NC(=O)CN3C(=O)CCC3=O)nc12	1.2%	-2.8%
69	CC1CC(C)CN(S(=O)(=O)c2ccc(C(=O)Nc3sccc3C(N)=O)cc2)C1 (stereo unspecified)	-0.5%	0.9%
70	OCCNC(=S)NCc1ccccc1	5.0%	0.0%
71	O=C(CN1CCOCC1)N1CCN(c2nnc(-c3ccccc3)c3ccccc23)CC1	-6.6%	-1.3%

no.	Rango release inh	GLA inh pH 4.5
59	0.4%	-0.8
60	11.1%	11.9
61	1.5%	12.2
62	2.8%	-0.1
63	-0.4%	8.1
64	9.3%	1.9
65	1.1%	4.8
66	13.6%	-9.6
67	33.8%	-11.4
68	-5.4%	12.6
69	17.2%	2.1
70	-9.8%	10.1
71	-5.7%	1.1
